Marburg entry inh – qHTS for inhibitors of binding or entry into cells for Marburg Virus. Marburg virus pseudotyped entry inhibition, cell reporter; control for the full effect not named in the record; about a third of the inactives were read at about 46 µM. Potency, µM (highest dose often 37.8 µM), without a hit: at the top dose activity change, negative = inhibition, actives largely listed as inhibitors. actives 1.8% (n = 300,000). AID 540276, 2011; active = well fitted inhibition curve with a large enough effect; inconclusive = small, poorly fitted or top-dose-only effect, or effect the other way; inactive = flat fitted curve, though single readings scatter; tested in HEK293 cells; about a fifth of its hits are not listed in these tables; note: % is set by controls: 0 for no effect and ±100 for the full control effect; luciferase read-out
Cruzain inh Det – qHTS Assay for Promiscuous and Specific Inhibitors of Cruzain (with detergent); purified cruzain, Z-FR-AMC fluorescence, 0.01% Triton; Cruzipain (Trypanosoma cruzi), P25779; Potency, µM, inactives show max response, negative = inhibition, most hits filed as inhibitors; AID 1478, 2009; actives 0.43% (n = 200,000);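 note: plate controls were neutral wells for no effect and buffer without enzyme for full effect; nearly all actives have a fitted effect of over 40% in size; top concentration of the series not given in the record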
Target sequence (P25779 123-467 limits assumed): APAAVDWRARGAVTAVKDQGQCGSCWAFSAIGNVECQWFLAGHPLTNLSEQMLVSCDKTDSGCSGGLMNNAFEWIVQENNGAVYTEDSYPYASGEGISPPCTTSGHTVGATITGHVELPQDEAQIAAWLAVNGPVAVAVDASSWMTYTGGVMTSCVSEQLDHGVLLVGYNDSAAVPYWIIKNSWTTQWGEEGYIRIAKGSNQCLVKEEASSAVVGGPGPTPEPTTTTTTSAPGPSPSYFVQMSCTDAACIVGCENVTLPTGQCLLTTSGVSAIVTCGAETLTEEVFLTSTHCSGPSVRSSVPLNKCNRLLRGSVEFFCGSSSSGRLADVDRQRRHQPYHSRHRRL
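15 min RT preincubation of 1.5 nM cruzain with compound, then 2 uM Z-FR-AMC added; kinetic AMC fluorescence, 60 s delta. Triton X-100 0.01%, pH 5.5.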
RE007 growth inh – qHTS Assay for Inhibitors of the HIV-1 protein Vpr; AID 651644, 2012; Potency, µM (top dose mostly 92.2 µM), without a hit: at the highest dose activity change, negative = less growth; S. pombe RE007 Vpr strain, BacTiter-Glo ATP luminescence, 24 h; control for the full effect not named in the record; actives 0.21% (n = 360,000); active = well fitted falling curve with a large enough effect; inconclusive = small, poorly fitted or top-dose-only effect; inactive = no such curve, though single readings can be large or run the other way;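 note: % is set by controls: 0 for no effect and ±100 for the full control effect; nearly all actives have a fitted effect of over 50% in size; the assay follows cell death caused by Vpr and the record does not say whether a fall means rescue or toxicity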
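Fission yeast strain RE007, carrying one chromosomally integrated HIV-1 vpr copy, was seeded at OD 0.01 in PMG+AL medium with 23 nL pinned compound. After 24 h at 30 °C and 99% humidity, viability was read by BacTiter-Glo luminescence.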
Cruzain inh noDet – qHTS Assay for Promiscuous and Specific Inhibitors of Cruzain (without detergent); actives 2.3% (n = 200,000); Cruzipain (Trypanosoma cruzi), P25779; purified cruzain, Z-FR-AMC fluorescence, no detergent; Potency, µM, for inactives: max response, negative = inhibition, actives largely listed as inhibitors;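 note: plate controls were enzyme without inhibitor for no effect and buffer without enzyme for full effect; nearly all actives have a fitted effect of over 40% in size; top concentration of the series not given in the record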
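Purified cruzain at 1.5 nM, pre-incubated 15 min with compound at room temperature in 100 mM sodium acetate pH 5.5, 5 mM DTT, 0.00005% Triton X-100. Reaction started with 2 uM Z-FR-AMC; AMC fluorescence increase over 60 s gives rate.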
SARS PLpro yeast – qHTS of Yeast-based Assay for SARS-CoV PLP; S. cerevisiae expressing SARS-CoV PLpro, growth rescue; control for the full effect not named in the record; Potency, µM (titrated, usually from 32.9 µM), without a hit: at the highest dose activity, positive = growth rescue; actives 0.19% (n = 330,000); AID 485353, 2010; active means well fitted rising curve with a large enough effect; inconclusive means small, poorly fitted or top-dose-only effect; inactive means no such curve, though single readings can be large or run the other way; note: 0% is about no effect; nearly all actives have a fitted effect of over 55% in size; growth read by luminescence after 48 h
StopGo reporter – High Throughput Screening for Foot and Mouth Disease Virus Antivirals. human cells with a luciferase reporter of 2A StopGo recoding; control for the full effect not named in the record. Potency, µM (top dose mostly 57.9 µM), for the others: top-dose signal change, negative = less light. actives 1.2% (n = 410,000). AID 1159524, 2015; active = well fitted falling curve with a large enough effect; inconclusive = small, poorly fitted or top-dose-only effect; inactive = no such curve, though single readings can be large or run the other way; tested in HEK293T cells; note: % is set by controls: 0 for no effect and ±100 for the full control effect; nearly all actives have a fitted effect of over 45% in size; luciferase light after 4 h
NS1 inh – qHTS Assay for Inhibitors of Influenza NS1 Protein Function | S. cerevisiae slowed by influenza A NS1, growth recovery by OD600 | Potency, µM (top dose mostly 46.1 µM), for inactives: top-dose activity, positive = more growth | actives 0.4% (n = 270,000); active means well fitted rising curve with a large enough effect; inconclusive means small, poorly fitted or top-dose-only effect; inactive means no such curve, though single readings can be large or run the other way; note: nearly all actives have a fitted effect of over 50% in size
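Recovery from NS1-induced slow growth read by OD600 in budding yeast switched to galactose assay medium (pH 6.0, -URA) at 1:100 dilution. Compound 23 nl per well; the matching strain lacking NS1 serves as control.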
LASV entry inh – qHTS for Inhibitors of binding or entry into cells for Lassa Virus; Lassa virus pseudotype entry inhibition, cell reporter; control for the full effect not named in the record; Potency, µM (series often up to 37.9 µM), for the others: at the highest dose activity change, negative = inhibition, actives largely listed as inhibitors; actives 1.2% (n = 300,000); AID 540256, 2011; active means well fitted inhibition curve with a large enough effect; inconclusive means small, poorly fitted or top-dose-only effect, or effect the other way; inactive means flat fitted curve, though single readings scatter; tested in HEK293 cells; note: % is set by controls: 0 for no effect and ±100 for the full control effect; nearly all actives have a fitted effect of over 50% in size; luciferase read-out
Numbers without * were called inactive; ? = inconclusive; . = not tested or not shown; & = joins results of further samples; [ ] = another dose, or the depositor's remark. Unless noted, calls come from the whole dose curve; as a rule, active = well fitted curve in the direction sought with a large enough effect; inconclusive = small, poorly fitted or top-dose-only effect, or another doubt; inactive = no such curve, though single readings can be large; an effect the other way counts as inactive or inconclusive. Potency is the fitted concentration of half-maximal effect.

SMILES | Marburg entry inh | Cruzain inh Det | RE007 growth inh | Cruzain inh noDet | SARS PLpro yeast | StopGo reporter | NS1 inh | LASV entry inh
CCCCOC(=O)c1ccc(NC(=O)Cc2coc3ccc(C(C)C)cc23)cc1 | ? | -5.0% | . | 3% | . | -26% | . | 1%[46.1 µM]
CCOC(=O)Nc1ccc2c(CN3CCC(C(=O)OC)CC3)cc(=O)oc2c1 | . | . | 3% | . | 1% | -11% | 5% | .
COCC(=O)NC1CCN(S(=O)(=O)c2cccc(C(C)=O)c2)CC1 | 0%[46.1 µM] | . | 13% | . | 1% | -5% | -1% | 11%[46.1 µM]
CCOC(=O)NC(=O)CSc1nnc(C)s1 | 16% | 5.6% | 1% | -5% | 2% | . | 9% | 2%
Cc1ccc(-c2nc3cc(NS(=O)(=O)c4ccc(C)cc4)ccc3o2)cc1 | 4% | -0.9% | 16% | ? | -23% | 34%[activator] | -48% | 5%
CCOc1ccc2nc(SCc3ccc(OC)cc3)sc2c1 | 12% | -6.0% | -2% | -1% | -3% | -2% | -29% | ?
O=C1c2ccc(Oc3ccc([N+](=O)[O-])cc3)cc2C(=O)N1c1ccncc1 | 3%[46.1 µM] | . | 1% | . | 4% | -23% | . | 0%[46.1 µM]
CN(C)S(=O)(=O)c1cc(NC(=O)COC(=O)CCc2ccccc2)ccc1Cl | -15%[46.1 µM] | . | 1% | . | -4% | -1% | -8% | -1%[46.1 µM]
O=C(Nc1ccc(Cl)cc1)OCc1cc(-c2ccccc2)on1 | -1% | 3.9% | -16% | ? | 7% | 9% | -33% | 26%
Cc1ccc(-c2cc(C(F)(F)F)n3nc(C(=O)Nc4ccon4)cc3n2)cc1C | 0%[46.1 µM] | . | 6% | . | -1% | -21% | -6% | 14%
CCOC(=O)c1ccc(NC(=O)CC2C(=O)N(c3cccc(OC)c3)C(=O)N2Cc2ccc(OC)cc2)cc1 (stereo not given) | ? | -1.7% | . | ? | . | -15% | . | -24%[46.1 µM]
CC(=O)c1cc(N2CCOCC2)ccc1[N+](=O)[O-] | 10%[46.1 µM] | . | 1% | . | 0% | -1% | 5% | ?
Cc1ccc(C(=O)Nc2ccc(C(=O)N3CCCCC3)cc2)o1 | . | . | -26% | . | -13% | 39%[activator] | 5% | .
Cc1cc(C)nc(SCC(=O)Nc2ccc(S(=O)(=O)N3CCCCC3)cc2)n1 | 2% | -2.9% | 20% | 12% | 0% | 0% | 2% | -14%
COc1ccc(CNC(=S)NNC(=O)c2cc3ccccc3o2)cc1 | ? | . | 14% | . | -2% | ? | 5% | 13%[46.1 µM]
CN(C)C(=O)COC(=O)c1ccc(S(=O)(=O)NCc2ccco2)cc1 | . | . | 4% | . | 0% | -3% | 1% | .
CSc1ccccc1NC(=O)NCCCl | 9%[46.1 µM] | . | -1% | . | 3% | -12% | -1% | 12%[46.1 µM]
Cc1c(C(=O)N2CCCCCC2)c(S(=O)(=O)NCc2ccccc2)c(C)n1C | . | -1.6% | . | 5% | . | 49%[activator] | . | 27%[46.1 µM]
COc1ccc(S(=O)(=O)N(CC(=O)NCc2ccccc2OC)c2ccc(C)cc2)cc1 | . | -3.9% | . | 0% | . | 4% | . | -20%[46.1 µM]
COc1cccc(N2CCN(S(=O)(=O)c3ccc4c(c3)CC(C)N4C(=O)C3CC3)CC2)c1 (stereo not given) | -24%[46.1 µM] | . | -14% | . | 0% | -24% | 14% | -5%[46.1 µM]
COC(=O)Nc1c(-c2ccccc2)nc2ccc(Cl)cn12 | 17% | . | -7% | . | 0% | -3% | 1% | 10%
C=CCNC(=O)CC(C)C(CCCCC)C(=O)O (stereo not given) | 10% | 3.4% | 24% | 1% | 3% | -10% | 5% | 3%
CCOC(=O)c1cnc2cc(-c3ccc(Cl)cc3)nn2c1N | 15% | 8.5% | -2% | 10µM* | 3% | . | -15% | 11%
CCOc1ccccc1CNCc1c(C(=O)O)c(C)n(Cc2ccc(Cl)cc2)c1C | -1%[46.1 µM] | -2.8% | . | 10% | . | 17% | . | ?
C=CCOc1cccc(C2C(C(=O)c3ccco3)=C(O)C(=O)N2Cc2ccncc2)c1 (stereo not given) | -8%&-2% | -6.5% | 3% | -20% | 4% | 43%[activator] | -5% | 8%
Cc1nnc(-c2ccc(Oc3ccc(C)c(C)c3)c([N+](=O)[O-])c2)o1 | ? | -6.2% | 5% | ? | -6% | -21% | -24% | ?
C/C(CC(=O)Nc1ccc2c(c1)OCO2)=N\NC(=O)C(c1ccccc1)c1ccccc1 | -13% | -6.2% | 18% | -2% | -24% | -16% | ? | 4%
COc1cc(Cl)ccc1OCc1cc(C(=O)N2CCCCCC2)no1 | . | . | -8% | . | -8% | 16% | -33% | .
Cc1ccccc1NC(=O)CSc1nc2nccnc2c(=O)n1CCc1c[nH]c2ccccc12 | . | -3.9% | . | ? | . | -9% | . | -1%[46.1 µM]
Cc1cccc(-c2cc3nc4c(c(N5CCOCC5)n3n2)CCCC4)c1 | ? | -11% | -17% | 29% | -28% | -26% | -80% | ?
CN(Cc1ccccc1)C(=O)CSc1nc2ccccc2[nH]1 | 29%[46.1 µM] | . | 19% | . | 1% | 45%[activator] | 8% | 12%
Cc1ccc(-n2c(SCC(=O)NCC3CCCO3)nc3c(c2=O)SCC3)cc1 (stereo not given) | -10% | -0.1% | 14% | -2% | 1% | -14% | 5% | -6%
CCc1noc(C)c1C(=O)Nc1ccc(-c2nnc3n2CCCCC3)cc1 | -3% | . | 12% | . | 7% | -9% | . | -3%
COc1ccccc1-c1cc(C(=O)NCc2ccccc2)no1 | -28% | -1.3% | -26% | 1% | -1% | 48%[activator] | -68% | -4%
Cc1nc(Nc2ccccc2C)c2cnn(C)c2n1 | -27% | . | 7% | . | . | -18% | . | ?
Cc1cccc(C)c1NC(=O)CSc1nnc(C)n1-c1ccccc1 | 17%[46.1 µM] | -0.2% | -7% | -3% | 1% | -15% | -2% | -1%
Cc1nn(-c2ccccc2)c(C)c1C(=O)OCC(=O)N1CC(=O)Nc2ccccc21 | 1% | 1.2% | 8% | 9% | -1% | 2% | -4% | 23%
CCOC(=O)CC(=O)CSCC(=O)Nc1ccc(C)cc1 | -8% | -2.6% | 4% | 3% | -2% | -1% | 3%[9.22 µM] | -16%
COc1cc(/C=N/NC(=O)c2cccs2)ccc1OCc1ccccc1 | 2% | -17% | 1%[3.69 µM] | 2% | 4% | -1% | 9% | 19%
CC1C(=O)Nc2ccccc2N1C(=O)c1ccccc1 (stereo not given) | -3%[46.1 µM] | . | 1% | . | 0% | -18% | . | -16%
O=C(O)c1ccc(N2C(=O)/C(=C/c3ccc(-c4ccc([N+](=O)[O-])cc4)o3)C=C2c2ccccc2)cc1 | -15%[46.1 µM] | . | 8% | . | 0% | 16µM* | . | -5%[46.1 µM]
O=C1S/C(=C/c2ccc(N3CCOCC3)o2)C(=O)N1Cc1ccc(F)cc1 | 18% | -4.0% | -25% | 0% | -8% | 13% | 22% | 1%
COc1ccc2c(c1OC)C(=O)N1c3ccccc3C(=O)N(c3ccccc3F)C21 (stereo not given) | ? | 2.2% | -1% | -5% | -10% | ? | -2% | ?
C=CCOc1ccc2c3c(c(=O)oc2c1)CCCC3 | 9%[46.1 µM] | . | 9% | . | . | -3% | . | -18%[46.1 µM]
COc1cccc(-c2ccc3c(N)c(C(=O)NCc4ccc(Cl)cc4)sc3n2)c1 | -14%[46.1 µM] | -5.8% | . | ? | . | -4% | . | 7.9µM*
O=C(/C=C/c1ccc([N+](=O)[O-])s1)N1CCCCC1 | 8.9µM* | . | ? | . | -7% | 4% | . | ?
COc1cc(-c2[nH]ncc2CN2CCN(c3cccc(C)n3)CC2)cc(OC)c1OC | . | . | -17% | . | -1% | -28% | 3% | .
O=[N+]([O-])c1cccc(Nc2c3ccccc3nc3ccccc23)c1 | 14%[46.1 µM] | . | -15% | . | -6% | -17% | -59% | 17%[46.1 µM]
Cc1ccc(OCCN(C)C(=O)C2CCC(=O)N(CCCN3CCOCC3)C2)cc1 (stereo not given) | . | . | 14% | . | 7% | -17% | 15% | .
CCc1ccc(CNC(=O)c2cccc(-n3c(C)nc4cccnc43)c2)cc1 | . | -3.6% | . | 14% | . | ? | . | -1%[46.1 µM]
O=C(O)Cn1nnc(COc2ccccc2)n1 | -3%[46.1 µM] | . | 8% | . | 4% | -21% | 16% | 5%
Cc1ccc(Nc2nc3ccccc3nc2Nc2c(C)n(C)n(-c3ccccc3)c2=O)cc1 | 31% | -5.0% | -7% | 14% | 6% | -9% | 11% | 9%
Cc1ccc(-c2nnnn2-c2ccc(C)cc2)cc1 | 0%[46.1 µM] | . | -2% | . | -4% | -10% | . | -11%

Screens from PubChem BioAssay.
